WNV protease inh – inhibitors of West Nile virus NS2B-NS3 protease. P06935. WNV NS2B-NS3 protease, fluorogenic substrate Ex360/Em465; hits give low values. z-score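 (tested at a level between 10 and 100 µM)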. 65,000 tested, 0.18% active;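 active means z-score at -3 or under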;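 further: score is relative to mean and spread of the compound wells of a plate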
Target sequence (P06935 1371-1501 limits assumed): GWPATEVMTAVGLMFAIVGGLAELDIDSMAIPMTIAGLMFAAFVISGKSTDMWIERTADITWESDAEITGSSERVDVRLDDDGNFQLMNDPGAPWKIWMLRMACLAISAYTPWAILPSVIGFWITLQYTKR
Target sequence (P06935 1502-1679 limits assumed): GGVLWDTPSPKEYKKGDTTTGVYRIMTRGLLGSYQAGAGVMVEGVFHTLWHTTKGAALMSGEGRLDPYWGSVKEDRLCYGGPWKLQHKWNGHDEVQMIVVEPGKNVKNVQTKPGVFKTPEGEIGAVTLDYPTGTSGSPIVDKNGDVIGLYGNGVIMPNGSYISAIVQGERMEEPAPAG
Hsc70 ATP site – small molecules displacing fluorescent ligand from Hsc70 – biochemical, fluorescence polarization, primary screen (AID 568). 83,000 tested, under 10 active. Hsc70 fluorescence polarization, probe displacement; higher % means a stronger effect; strong numbers were not always called active. displacement, % at 20 µM, or IC50 in µM where a hit was titrated;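 active means displacement above 50% without optical interference and an IC50 on retest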;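 further: ATPase domain with a fluorescein-tagged ATP probe; 0% = vehicle and 100% = excess ADP; read after one hour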
MT1-MMP promoter – inhibitors of MT1-MMP promoter transcription, cell-based, luciferase reporter, luminescence (AID 618); MT1-MMP promoter luciferase reporter cells, luminescence; calls from a first round at 10 µM; hits with a dose series show EC50 in µM; 87,000 tested, 0.62% active;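 active means over half of the reporter light lost at 10 µM or EC50 under 50 µM; inactive means the rest and hits that failed the dose series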;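 further: actives suppress MT1-MMP promoter-driven transcription so potencies describe inhibitors; HT1080 fibrosarcoma cells; overnight exposure; toxic or luciferase-blocking compounds were not removed from the actives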
* marks the source's active call; other numbers are inactive results; i = inactive; / = not tested or not shown. The order is random; any-hit rate near 0.87%.

molecule | WNV protease inh | Hsc70 ATP site | MT1-MMP promoter
O=C1c2ccccc2C(Nc2ccc3c(c2)OCO3)N1Cc1ccco1 (centres undefined) | -0.23 | -3.9% | i
O=C(c1ccncc1)c1ccc(Br)cc1 | -0.5 | -3.8% | i
Cc1ccc(-c2nc(CSCC(=O)N3CCOCC3)c(C)o2)cc1 | 0.34 | -5.6% | i
CN=C1SC(C(=O)O)CC(=O)N1C (centres undefined) | 1.17 | -2.6% | i
Cc1noc(C)c1COc1ccc(C(=O)OCC(=O)NC(=O)C2COc3ccccc3O2)cc1 (centres undefined) | 0.64 | -2.3% | i
CCCCn1nc(C(=O)N[C@@H](CCSC)c2nc3ccccc3[nH]2)c2ccccc2c1=O | / | 8.3% | i
CC1(C)CC(=O)C2=C(C1)N(CCN1CCOCC1)C1=C(C(=O)CC(C)(C)C1)C2c1ccc(Cl)cc1 | 0.96 | 4.2% | i
CC1CCCC(NC(=O)c2n[nH]c(=O)c3ccccc23)C1C (centres undefined) | 0.81 | 2.9% | i
CCC(CC)c1nnc(NC(=O)CCN2C(=O)c3ccccc3C2=O)s1 | / | -4.7% | i
COc1ccc(C)cc1NC(=O)Cn1cnc2sc(C)c(S(=O)(=O)N3CCOCC3)c2c1=O | / | 3.5% | i
COc1ccc(-c2cc(=O)c3ccccc3n2C)cc1 | / | -2.8% | i
CCN(C(=O)COC(=O)c1cnc(C)cn1)C1CCCCC1 | 0.34 | -3.6% | i

(list continues)
molecule | WNV protease inh | Hsc70 ATP site | MT1-MMP promoter
COc1ccc(C(=O)OCC(=O)c2ccccc2)cc1S(=O)(=O)N1CCOCC1 | / | 1.3% | i
COC(=O)[C@H](CCSC)NC(=O)Nc1ccc(C)cc1 | 0.05 | -6.1% | i
CCN(CC)S(=O)(=O)c1cc(C(=O)Nc2ccccn2)ccc1C | -0.32 | -1.8% | i
Cc1cccc(NC2SC(=O)N(CC(=O)O)C2=O)c1 (centres undefined) | / | -4.5% | i
COc1ccccc1C(=O)Oc1cc(N)n(S(=O)(=O)c2ccc(C)cc2)n1 | -2.09 | 8.8% | i
c1ccc2sc(SN3CCOCC3)nc2c1 | -1.02 | 2.2% | i
O=C(Nc1cc(Cl)cc(Cl)c1)C(NCCO)c1ccccc1 (centres undefined) | / | -5.1% | i
Cc1nn(Cc2ccccc2)c(C)c1NC(=O)CSc1nc2sc3c(c2c(=O)n1C)CCC3 | -0.04 | -4.2% | i
Cn1c(SCc2cccnc2)nnc1-c1c[nH]c2ccccc12 | -0.96 | 2.3% | i
CC(=O)N1CCN=C1SCc1ccccc1 | 0.12 | 2.6% | i
CCOCCCNC(=O)CN1C(=O)C(CC)Oc2ccccc21 (centres undefined) | -1.37 | -1.9% | i
CCOC(=O)Cc1c(C)nc2c(-c3ccccc3)c(-c3ccccc3)[nH]n2c1=O | / | -3.3% | i

(further entries)
molecule | WNV protease inh | Hsc70 ATP site | MT1-MMP promoter
CCOC(=O)C1CCCN(C(=O)c2cc(Cl)ccc2Cl)C1 (centres undefined) | 0.08 | -4.2% | i
COc1cccc(NC(=O)CN2CCN(c3nc(-c4cccc(OC)c4)cs3)CC2)c1 | / | -2.3% | i
Cc1cccc(C)c1NC(=O)N1CCN(c2nc3ccccc3s2)CC1 | / | -0.2% | i
Cn1c(SCC(=O)NC(C)(C)C)nnc1-c1cccc(NC(=O)c2ccccc2F)c1 | / | -0.2% | i
Clc1ccc(-c2nnn(Cc3nc4ccccc4s3)n2)cc1 | -0.34 | -5.3% | i
CCC(C)Nc1nc2c(c(=O)n(C)c(=O)n2C)n1Cc1ccc(F)cc1 (centres undefined) | -0.38 | -0.7% | i
Clc1ccc(-c2cnc3n2CCC3)cc1 | / | -3.4% | i
O=C(Nc1cc(C(=O)N2CCCC2)ccc1N1CCCC1)c1ccccc1 | 0.14 | 3.7% | i
COc1cc(C(=O)Nc2ccc(S(=O)(=O)N3CCCCC3C)cc2)cc(OC)c1OC (centres undefined) | 1.18 | -2.4% | i
Cc1nnc(SCC(=O)Nc2ccc3c(c2)COC3=O)n1-c1ccccc1 | 0.03 | -2.0% | i
CCOc1ccc(NC(=O)C2CCN(c3nnnn3-c3ccccc3)CC2)cc1 | / | -0.2% | i
CCSC1=C(C#N)C(c2cccc(O)c2)CC(=O)N1 (centres undefined) | 0.68 | -0.1% | i

Carrying on:
molecule | WNV protease inh | Hsc70 ATP site | MT1-MMP promoter
CCCN1CCC(N(C)CCc2ccc(OC)c(OC)c2)CC1 | -0.67 | -5.1% | i
O=C(Oc1c(Cl)cc(Cl)c2cccnc12)N1CCOCC1 | -0.73 | 5.5% | i
CCNc1nc(C)nc2c1oc1ccccc12 | -0.73 | 1.3% | i
CCOC(=O)c1cn(CC)c2ccc(S(=O)(=O)N3CCC(C)CC3)cc2c1=O | -0.36 | -8.2% | i
COCCNC(=O)CSc1nc2ccc(N3CCOCC3)cc2c(=O)n1CCc1ccccc1 | 0.72 | -0.9% | i
CN1CCN(S(=O)(=O)c2ccc(SCCOc3ccccc3)nc2)CC1 | 0.27 | 1.9% | i
COc1ccc(-c2ccc(=O)n(CC(=O)Nc3nnc(C(C)C)s3)n2)cc1OC | / | 6.0% | i
Cc1cc(NC(=O)C2=C(O)c3ccccc3S(=O)(=O)N2C)no1 | 0.17 | -1.9% | i
CCNc1ccc2noc3c2c1C(=O)c1ccccc1-3 | / | 94.0% | i
CCOC(=O)C(NCCCCl)c1ccccc1 (centres undefined) | / | -5.3% | i
CC(C)(C)n1nnnc1C(c1ccc(Cl)cc1)N1CCCc2ccccc21 (centres undefined) | / | 1.5% | i
Cc1c(NC(=O)C2CCCN2C(=O)c2cccs2)c(=O)n(-c2ccccc2)n1C (centres undefined) | 0.63 | 0.0% | i

Next section
molecule | WNV protease inh | Hsc70 ATP site | MT1-MMP promoter
O=C(O)COCCN1CCN(C(c2ccccc2)c2ccc(Cl)cc2)CC1 (centres undefined) | / | -1.4% | i
O=C(Cc1cc(=O)[nH]c(=O)[nH]1)NCCN1CCOCC1 | 0.41 | -3.7% | i
CCCOC1(NC(=O)c2ccccc2)C(C)=CC(=O)C=C1C | 0.42 | -12.1% | i
COc1ccc(C(=O)Nc2nc(N)n(-c3ccccc3)n2)cc1OC | 0.7 | 6.2% | i
O=C(c1cc2ccccc2oc1=O)N(Cc1cccs1)C1CCS(=O)(=O)C1 (centres undefined) | -1.72 | 1.1% | i
Cc1ccc2c(c1)[nH]c1c(=O)n(Cc3ccccn3)cnc12 | 0.55 | -2.5% | i
CC1CN(C(c2cccs2)c2sc3ncnn3c2O)CC(C)O1 (centres undefined) | 0.33 | 2.4% | i
Cc1ccc(C)c(N2CCN(C(=O)Cn3cccc3)CC2)c1 | 0.11 | -0.4% | i
CC1(C)C2CCC1(CS(=O)(=O)N1CCOCC1)C(=O)C2 (centres undefined) | / | -4.1% | i
CC(=O)Nc1c(O)nc(SCC(=O)Nc2c(C)cccc2C)[nH]c1=O | / | 0.7% | i
O=C(Nc1ccccc1N1CCN(c2ccccc2)CC1)C1CCCCC1 | -1.35 | -10.9% | i
O=C(c1cc(-c2ccco2)on1)N1CCCc2ccccc21 | -1.76 | -6.0% | i

Continued:
molecule | WNV protease inh | Hsc70 ATP site | MT1-MMP promoter
CCOc1cc2[nH]c(=S)n(CCCCC(=O)NCc3ccco3)c(=O)c2cc1OCC | -1.06 | -1.2% | i
COc1ccc(CCNc2ncnc3c2oc2ccccc23)cc1OC | 0.92 | -1.7% | i
Cc1cc(C)cc(NC(=O)c2nnn(Cc3cc(C)ccc3C)c2N)c1 | -0.34 | -0.3% | i
CCOC(=O)C1CCN(C(=O)Nc2ccc3nc(-c4ccco4)c(-c4ccco4)nc3c2)CC1 | / | -1.8% | i
COc1ccc(OCC(=O)N2CCN(S(=O)(=O)c3ccc(Cl)cc3)CC2)cc1 | / | 7.0% | i
CCN(CC)CCN1C(=O)C(=O)/C(=C(/O)c2ccc(OC(C)C)cc2)C1c1ccncc1 (centres undefined) | -0.63 | 5.7% | i
Cc1cccc(C)c1-n1c(SCC(=O)NCc2ccco2)nc2ccccc2c1=O | / | -0.3% | i
CC1(C)CC(=O)c2sc(NS(=O)(=O)Cc3ccccc3)nc2C1 | 1.58 | 1.8% | i
COc1cc(C(c2c(C)[nH][nH]c2=O)c2c(C)[nH][nH]c2=O)ccc1OS(=O)(=O)c1ccc(C)cc1 | / | 2.6% | i
O=C(NCc1cccnc1)c1cccc(NC(=O)c2ccco2)c1 | -1.21 | 2.9% | i
COc1ccc(Cn2c3nc4ccccc4nc3c3c(=O)n(Cc4ccco4)cnc32)cc1 | -0.8 | 2.2% | i
CCOc1ccc(-n2c(=O)c3sccc3n(CC(=O)NCc3ccco3)c2=O)cc1 | 0.31 | 2.6% | i

New compounds follow
molecule | WNV protease inh | Hsc70 ATP site | MT1-MMP promoter
CCOc1nc(-c2ccc(OC)cc2)ccc1-c1noc(-c2cccnc2)n1 | -0.98 | -9.7% | i
O=C(NC1CC1)C1C2C3C4CC5C3C5C4C12 (centres undefined) | 2.75 | -0.7% | i
Cc1ccccc1Cn1c(CN2CCc3ccccc3C2)nc2c1c(=O)n(C)c(=O)n2C | -0.03 | 3.2% | i
O=C(O)CSc1ncn[nH]1 | -0.04 | 3.6% | i
Cc1cn(C2OC(COC(=O)c3ccccc3)C(O)C2O)c(=O)[nH]c1=O (centres undefined) | -0.51 | -2.4% | i
CSCCC(NC(=O)COc1ccccc1)C(=O)N1CCN(c2ccccc2F)CC1 (centres undefined) | 1.4 | 0.8% | i
COC(=O)CC(=O)CSc1nc(C)cc(C)c1C#N | 1.24 | -6.6% | i
COc1ccc(N2CCN(C(=O)C3CCCN(S(=O)(=O)c4cccc5cccnc45)C3)CC2)cc1 (centres undefined) | -0.3 | -2.2% | i
O=C1CCN2C=Nc3cccc4ccc1c2c34 | -0.54 | 146.3% | i
COc1cccc(C(=O)NCC(c2cccnc2)N2CCN(c3ccccc3OC)CC2)c1 (centres undefined) | -0.02 | 12.1% | i
O=C1c2ccccc2C(Nc2ccccc2F)N1c1cccnc1 (centres undefined) | -0.19 | 1.9% | i
Cc1ccc(Cn2nnc3c(=O)[nH]c(C4CCN(C(=O)c5cccs5)CC4)nc32)cc1 | -0.24 | 0.2% | i

Next part:
molecule | WNV protease inh | Hsc70 ATP site | MT1-MMP promoter
CCCC1CCc2c(sc(NC(=O)OCC)c2C#N)C1 (centres undefined) | / | 1.1% | i
COc1ccc(S(=O)(=O)N(C)CC(=O)N2CCCCCC2)cc1OC | -0.85 | -4.4% | i
Cc1cc2cc(CNS(=O)(=O)c3ccccc3)ccc2n1C | 2.08 | 8.0% | i
Oc1c(C(c2cccs2)N2CCN(c3ccc(F)cc3)CC2)sc2ncnn12 (centres undefined) | -1.57 | 1.2% | i
COCCSc1ccccc1C(=O)Nc1ccc2c(c1)OCCO2 | / | -1.3% | i
O=C(NCc1ccco1)C1CCN(S(=O)(=O)Cc2ccccc2)CC1 | / | 5.2% | i
CCOc1ccc(N2C(=O)CC(Sc3ncccn3)C2=O)cc1 (centres undefined) | 0.1 | -2.1% | i
CSc1nnc(Cc2cc(=O)[nH]c(=O)[nH]2)n1-c1cccc(C)c1 | -0.15 | -2.7% | i
CS(=O)(=O)N(CC(=O)N1CCN(Cc2ccccc2)CC1)Cc1ccccc1 | -0.83 | 3.8% | i
Cc1ccc(CS/C(Nc2ccccc2C)=C(\C#N)C(=O)NCc2ccco2)c(C)c1 | / | -3.8% | i
O=S(=O)(c1ccc(Br)cc1)N1CCn2c(nc3ccccc32)C1 | 0.4 | -2.2% | i
COc1ccc2c(OC)cc(-c3ccccc3)nc2c1 | / | -3.7% | i

The final six compounds of the section above open the next one:
molecule | WNV protease inh | Hsc70 ATP site | MT1-MMP promoter
CCOc1ccc(N2C(=O)CC(Sc3ncccn3)C2=O)cc1 (centres undefined) | 0.1 | -2.1% | i
CSc1nnc(Cc2cc(=O)[nH]c(=O)[nH]2)n1-c1cccc(C)c1 | -0.15 | -2.7% | i
CS(=O)(=O)N(CC(=O)N1CCN(Cc2ccccc2)CC1)Cc1ccccc1 | -0.83 | 3.8% | i
Cc1ccc(CS/C(Nc2ccccc2C)=C(\C#N)C(=O)NCc2ccco2)c(C)c1 | / | -3.8% | i
O=S(=O)(c1ccc(Br)cc1)N1CCn2c(nc3ccccc32)C1 | 0.4 | -2.2% | i
COc1ccc2c(OC)cc(-c3ccccc3)nc2c1 | / | -3.7% | i
Cn1nc(OC(=O)Nc2ccc(F)cc2)cc1C(F)(F)F | / | 0.6% | i
OCCN1CCN(Cc2cc(Br)cc(Br)c2O)CC1 | -0.33 | 0.3% | i
Cc1cnc(NC(=O)CN2CCN(c3ccccc3F)CC2)s1 | / | -0.6% | i
COc1ccc(S(=O)(=O)NC2(C(F)(F)F)N=C3SCCN3C2=O)cc1 (centres undefined) | 0.64 | 1.1% | i
CCCS(=O)(=O)N1CCC(C(=O)NCCN2CCC(Cc3ccccc3)CC2)CC1 | -0.2 | -2.0% | i
COc1ccc(OC)c(C(=O)CSc2nnc(-c3cccs3)n2C)c1 | 1.5 | 0.5% | i
CC(=O)Nc1nc2c(c3c1c(=O)oc1ccccc13)CCCC2 | -0.94 | 2.0% | i
OCC#CCSc1nnc(-c2ccccc2Br)o1 | -0.49 | 2.6% | i
CCOC(=O)C1=C(C)NC(=O)NC1c1c(O)ccc2ccccc12 (centres undefined) | -0.67 | -2.0% | i
CCC(C)NS(=O)(=O)c1ccc(-c2csnn2)s1 (centres undefined) | / | 4.4% | i
CCOC(=O)N1CCC(NC(=O)CN2C(=O)COc3ccc(C(C)(C)C)cc32)CC1 | -1.77 | 1.6% | i

Bioassay records as filed in PubChem.
